# Vaccinia mCherry – inhibitors of vaccinia virus infection (mCherry reporter signal); Vaccinia virus mCherry reporter infection, fluorescence; about a quarter of the inactives have no number; Potency, µM (highest dose often 36.5 µM), for inactives: at the top dose activity change, negative = inhibition, hits mostly inhibitors; 0.63% of 310,000 active; AID 720579; active = well fitted inhibition curve with a large enough effect; inconclusive = small, poorly fitted or top-dose-only effect; inactive = no such curve, though single readings can be large or run the other way; tested in A549 cells; further: nearly all actives have a fitted effect of over 35% in size; inactives centre near -10
# VACV Venus inh – inhibitors of vaccinia virus (Venus reporter) | Potency, µM (top dose mostly 36.5 µM), for the others: top-dose activity change, negative = inhibition, usual class: inhibitors | Vaccinia virus Venus reporter expression, fluorescence | 0.46% of 330,000 active | AID 720580; active means well fitted inhibition curve with a large enough effect; inconclusive means small, poorly fitted or top-dose-only effect; inactive means no such curve, though single readings can be large or run the other way; tested in A549 cells; further: nearly all actives have a fitted effect of over 30% in size; inactives centre near -10
# Starred values were filed as active, the others as inactive; i = inactive; ? = inconclusive; . = no result given; & = joins results of further samples; [ ] = another dose, or the depositor's remark. On the % scale 0 is the no-effect control and ±100 the full control effect; potency means the concentration at half of the fitted maximal effect. Compounds as they come; any-hit rate near 0.87%.
# Below each compound – Vaccinia mCherry	VACV Venus inh
Clc1cccc(Cl)c1/C=N\Nc1nccs1
    -23%	-22%
Cc1ccc(S(=O)(=O)C(CNC(=O)c2c(F)cccc2F)c2ccco2)cc1 (centres undefined)
    -1%	-6%
O=C1NC(=O)C2(CCCc3ccc([N+](=O)[O-])cc32)N1 (centres undefined)
    -13%	-5%
O=C(O)c1ccc(-n2nncc2-c2ccccc2)cc1
    i	-3%
Oc1ccccc1C1CCCCC1c1ccccc1 (centres undefined)
    ?	?
O=C(/C=C/c1ccc(Cl)cc1)Nc1nccs1
    5%	-13%
COCCN1C(=O)CCC1(C)c1nnnn1-c1ccc2ccccc2c1 (centres undefined)
    -1%	0%
O=C(Nc1cccc(-c2cccc(Cl)c2)c1)C1CCN(Cc2nccs2)CC1
    ?	?
COC(=O)C1=C[C@@H](C(=O)OC)[C@@H]2C3=C(C(=O)C2(C)C)[C@H](C)n2c(=O)n(-c4ccccc4)c(=O)n2[C@@H]3C1
    -14%	-4%
CN(C)S(=O)(=O)c1ccc(NC(=O)CSc2n[nH]c(=O)n2C2CC2)cc1
    i	3%
COc1ccc(OCC(=O)Nc2ccc(OC)c(S(=O)(=O)N3CCCCC3)c2)cc1
    ?	?
O=C(Nc1ccccc1)c1ccc2nc(-c3ccco3)c(-c3ccco3)nc2c1
    4%	-15%
CCOC(=O)c1cc(CC)sc1/N=C/c1c(O)[nH]c(=S)[nH]c1=O
    -17%	-4%
CC(C)NCc1cccc([N+](=O)[O-])c1
    i	-10%
CC(O)(c1ccc(F)c(F)c1)c1nc(/C=C/c2ccc(C(F)(F)F)cc2)cs1 (centres undefined)
    -6%	-3%

# The list goes on.
# Below each compound – Vaccinia mCherry	VACV Venus inh
CCOC(=O)CSc1nc2ccccc2c(=O)n1-c1ccc(C(=O)NCCOC)cc1
    -13%	-16%
O=C(OCC(O)CN1CCCCC1)C12CC3CC(CC(C3)C1)C2 (centres undefined)
    i	-7%
CCOC(=O)C1CCCN(c2c(NCCCN(CC)c3cccc(C)c3)c(=O)c2=O)C1 (centres undefined)
    -14%	-7%
COc1ccc(N=Cc2c(O)n(-c3ccc(C)cc3)c(=O)[nH]c2=O)cc1
    -10%	-6%
O=C(OCC(=O)c1ccc(Cl)cc1Cl)c1cnccn1
    i	-3%
COc1ccc(-c2nc(CS(=O)CC(=O)NCc3ccccn3)c(C)o2)cc1 (centres undefined)
    -2%	16%
CC(C)CCNC(=O)CCCN1C(=O)c2ccccc2Sc2ncccc21
    -10%	-11%
Cc1ccc(-c2nn(CCC#N)cc2C=C(C#N)C#N)cc1
    -6%	-15%
CCOc1ccc(CCNS(=O)(=O)c2c(C)nc3scc(C)n3c2=O)cc1OCC
    -9%	-3%&2%
CN1C(=O)C(C(=O)Nc2ccccc2F)c2ccccc21 (centres undefined)
    -27%	-7%
O=C(CN1C(=O)NC2(CCCC2)C1=O)N1CCN(c2ccccc2O)CC1
    -4%	-4%
Cc1ccc(/C=C/C(=O)N2CCN(c3ncccn3)CC2)o1
    -12%	-4%
Cc1nc2ccc(NC(=O)N3CCCCC3)cc2s1
    -6%	-6%
CCOc1cc(/C=N/n2cnnc2)c(Br)cc1O
    -3%	-10%
CNC(=O)CSP(=S)(OC)OC
    -16%	-8%&-3%

# Next section
# Below each compound – Vaccinia mCherry	VACV Venus inh
COc1ccccc1N1CCN(c2cc(=O)n(-c3ccc(Cl)cc3)c(=O)[nH]2)CC1
    -7%	-18%
O=S(=O)(c1ccc(F)cc1F)N1CCN(CCO)CC1
    i	-1%
O=C(COc1ccc2c(c1)OCO2)NC12CC3CC(CC(C3)C1)C2
    -17%	-9%
Cc1c(CCC(=O)N2CCC(C(=O)O)CC2)c(=O)oc2cc3oc4c(c3cc12)CCCC4
    -2%	-2%
CCOC(=O)Cc1c(C)nc2c(-c3ccc(OC)c(OC)c3)c(C)nn2c1C
    -17%	-10%
Cc1ccc(CNC(=O)C2CCC(=O)N(CCc3ccccn3)C2)s1 (centres undefined)
    -9%	-4%
Cc1ccc(OCCC(=O)N(CC(=O)Nc2ccccc2C(F)(F)F)Cc2ccco2)cc1
    -28%	-19%
Cc1c(CN2CCC(CO)(CCOc3ccccc3)CC2)[nH]c2ccc(Cl)cc12
    ?	-27%
O=C(CSc1nnnn1-c1ccccc1)CSc1nnnn1-c1ccccc1
    -5%	-21%
CCN(CC)c1nc(C(N)=O)cc(-c2ccccc2)n1
    -12%	-23%
CCOc1ccc2nc(N3CCCC(C(=O)NC4CCCC4)C3)sc2c1 (centres undefined)
    -10%[7.34 µM]	-6%[7.34 µM]
O=CNc1ccc(OP(=O)(Oc2ccccc2)Oc2ccccc2)cc1
    ?	-10%
CC(C)c1ccccc1OCCCCCN1CCOCC1
    -4%[7.34 µM]	-2%[7.34 µM]
CCCOc1ccc(C2c3c(oc4ccccc4c3=O)C(=O)N2c2nnc(C(C)C)s2)cc1 (centres undefined)
    -5%	1%
Cc1ccc(S(=O)(=O)N(C(=O)c2ccncc2)c2ccc(OC(=O)c3ccncc3)cc2)cc1
    i	-19%

# Next section
# Below each compound – Vaccinia mCherry	VACV Venus inh
CCOc1ccc(/C(O)=C2/C(=O)C(=O)N(CCN(CC)CC)C2c2ccco2)cc1 (centres undefined)
    -14%	2%
COc1cccc(O)c1CN1CCC2(CC1)c1ccccc1[C@@H](NC(=O)c1ccsc1)[C@@H]2OC
    -13%	-1%
COC(=O)c1ccccc1S(=O)(=O)NNC(=O)c1ccccc1-n1cccc1
    -11%	-21%
CC(=O)NCCNc1nc2cc(-c3ccc(C)cc3)sc2c(=O)n1C
    ?	?
O=C(CCn1c(=S)oc2ccccc21)Nc1cccc(F)c1
    i	-4%
CCCCN1C(=O)C(O)(CC(=O)c2ccccc2OC)c2ccccc21 (centres undefined)
    i	-4%
CC(C)C(NC(=O)c1ccc(Cl)cc1Cl)C(=O)N1CCN(S(=O)(=O)c2ccccc2)CC1 (centres undefined)
    -20%	-12%
Cn1cccc1C(=O)NC(=O)COC(=O)CC12CC3CC(CC(C3)C1)C2
    .	19%
CCCNS(=O)(=O)c1ccc(OCC(=O)Nc2ccc3c(c2)OCCO3)c(C)c1
    i	-12%
Cc1cccc(C)c1OCC(=O)NCC1(N(C)C)CCCCC1
    -18%	-18%
CC(C)C[C@@H]1COc2cccc(N3CCC[C@H]3CO)c2S(=O)(=O)N1
    -14%	-11%
CCOc1ccccc1NC(=O)N1CC(C)Oc2ccc(Cl)cc21 (centres undefined)
    -7%	-8%
O=C1C(N2CCOCC2)=Cc2cccc3cccc1c23
    -7%	1%
COc1ccc(OC)c(/C=N/NC(=O)CN2CCSCC2)c1
    -11%	-11%
CC(C)(C)C(=O)N1CCN(c2nc3ccc(Cl)cc3s2)CC1
    i	-9%

# More structures:
# Below each compound – Vaccinia mCherry	VACV Venus inh
COc1ccc(CC(=O)Nc2ccccc2C(=O)N2CCOCC2)cc1OC
    -14%	-4%
O=C(CCc1nc2ccccc2c(=O)[nH]1)NNC(=O)c1ccccc1Cl
    -14%	-5%
Cc1ccc(-c2csc(NC(=O)/C=C/c3ccco3)c2C(=O)O)cc1
    -14%	-6%
CC1CCC(CN2C(Nc3ccccc3)=NC[C@@H]2C)CC1 (some centres undefined)
    -7%	-7%
Cc1ccccc1NC(=O)CN1C(=O)COc2ccc(Cl)cc21
    -3%	-11%
COCc1cc(Sc2cccc(Cl)c2Cl)nc(-c2ccccc2)n1
    .	-14%
COc1cccc(-c2cc(NC=O)c3ncc(-c4ccc(F)c(Cl)c4)n3c2)c1
    4%	5%
O=C(CCSCCc1ccccn1)Nc1ccc(Br)cc1F
    i	-3%
CCOc1ccc(OCc2ccc(C(=O)N3CCCCC3)o2)cc1
    -11%	-14%
COc1ccc(C(C)C)cc1S(=O)(=O)Nc1ncn[nH]1
    -13%	-4%
Cc1ccc(CNc2ccc([N+](=O)[O-])cc2C(N)=O)cc1
    ?	-27%
Cc1ccc(Sc2cc(Cl)nc(N)n2)cc1
    .	?
C=CCN1C=CC(=C/C=C(/C#N)C(=O)OCC)C=C1
    i	-5%
COc1ccc(Cl)cc1C(=O)NNC(=O)c1csc(N2CCOCC2)n1
    -21%	-13%
CCC(=O)Nc1cc(OC)cc(OC)c1
    i	-26%

# Retrieved by compound from the list above:
# Below each compound – Vaccinia mCherry	VACV Venus inh
O=C(CCSCCc1ccccn1)Nc1ccc(Br)cc1F
    i	-3%
COc1cccc(-c2cc(NC=O)c3ncc(-c4ccc(F)c(Cl)c4)n3c2)c1
    4%	5%
O=C(CCc1nc2ccccc2c(=O)[nH]1)NNC(=O)c1ccccc1Cl
    -14%	-5%
Cc1ccccc1NC(=O)CN1C(=O)COc2ccc(Cl)cc21
    -3%	-11%

# Entries of single compounds from above.
# COc1ccc(Cl)cc1C(=O)NNC(=O)c1csc(N2CCOCC2)n1 is listed with Vaccinia mCherry: -21%; VACV Venus inh: -13%
# O=C(CCSCCc1ccccn1)Nc1ccc(Br)cc1F is listed with Vaccinia mCherry: i; VACV Venus inh: -3%
# CCC(=O)Nc1cc(OC)cc(OC)c1 is listed with Vaccinia mCherry: i; VACV Venus inh: -26%

# (continued)
# Below each compound – Vaccinia mCherry	VACV Venus inh
C=CCn1c(SCC(=O)Nc2ccc(OC)cc2)nnc1-c1cnccn1
    i	-12%
Cc1csc(NC(=O)C2CC(=O)N(c3ccc(C)c(C)c3)C2)n1 (centres undefined)
    -4%	-19%
O=C(Cn1c(C(F)(F)F)nc2ccccc21)Oc1cccc(C(F)(F)F)c1
    .	-7%
COc1ccc(OCCCNCCc2ccccc2)cc1
    i	-8%
COC(=O)c1ccc(C(=O)N2CCCC(Nc3ccc(F)c(F)c3)C2)cc1 (centres undefined)
    i	-10%
CCC(C)c1ccc(NC(=S)NC2CCN(Cc3ccccc3)CC2)cc1 (centres undefined)
    ?	10µM*
CC(=O)Nc1ncc(Cc2cc(Cl)ccc2Cl)s1
    ?	-20%
NCCCn1c(C(=O)c2ccc(Cl)cc2)c2ccc(C(F)(F)F)cc2[n+]1[O-]
    -9%	-22%
O=C(N/N=C\c1ccccn1)c1cccc(C(=O)N/N=C\c2ccccn2)n1
    i	5%
O=C(NCCc1ccccc1)/C(=C\c1ccc([N+](=O)[O-])cc1)NC(=O)c1ccc(Br)cc1
    -18%	-17%
CCOc1ccc(NC(=O)CN(C)C(=O)c2ccccc2OCCOc2ccccc2)cc1OCC
    -18%	-25%
CN1CCN(CC(O)(c2ccc(Cl)cc2)c2ccc(Cl)cc2)CC1
    -18%	-16%
CC(C)OC(=O)c1c(NC(=O)CCC(=O)O)sc2c1CCCCC2
    i	-15%
COc1ccc(C(=O)Nc2ccc(O)c3c(=O)cc(-c4cccc(Cl)c4)oc23)cc1
    -4%	-30%
CCCn1c(N)c(C(c2ccc(OC)cc2)N2CCN(c3ccccc3)CC2)c(=O)[nH]c1=O (centres undefined)
    .	-7%

# (next part)
# Below each compound – Vaccinia mCherry	VACV Venus inh
CCOC(=O)C(Oc1ccc2c(-c3ccccc3)cc(=O)oc2c1C)c1ccccc1 (centres undefined)
    0%	3%
NNc1ncnc2scc(-c3ccc(Cl)cc3)c12
    ?	-28%
CCOc1ccc(CNC(=O)c2ccc3c(c2)c(C)c(C)n3Cc2ccc(Cl)cc2)cc1
    -18%	-14%
COC(=O)c1ccc(COC(=O)C2CCN(S(=O)(=O)c3ccc(C)c(C)c3)CC2)o1
    -14%	-13%
O=C(Nc1ccc(Cl)cc1Cl)NC1CCN(S(=O)(=O)c2ccc(F)cc2)CC1
    -16%	-13%
O=C(Oc1ccccc1)c1ccc2nsnc2c1
    -7%	1%
COc1cc(NC(=O)CC2C(=O)N(c3cccc(C)c3)C(=O)N2Cc2cccs2)cc(OC)c1 (centres undefined)
    -5%	-7%
Cc1ccc(C(=O)NCCN2CCOCC2)cc1S(=O)(=O)N1CCCCC1
    -1%	-18%
COC(=O)CNC(=O)CNC(=O)c1nn(-c2ccc(OC)c(Cl)c2)c(=O)c2ccccc12
    -9%	1%
CCCOc1ccc(Cc2c(Cl)nc(SC)nc2N(C)C)cc1
    -13%	-11%
Cc1c(NC(=O)CN2C(=O)c3ccc([N+](=O)[O-])cc3C2=O)c(=O)n(-c2ccccc2)n1C
    4%	2%
COc1ccccc1CCC(=O)N1CCN(C(=O)c2ccccc2)CC1
    -16%	-10%
OC(CON=C1c2ccccc2-c2ccccc21)CN1CCNCC1 (centres undefined)
    ?	?
O=C(O)CC1(CC(=O)Nc2ccc(Br)cc2)CCCCC1
    -12%	17%
CCN(CC)CCN1C(=O)C(=O)/C(=C(/O)c2cccc(OC)c2)C1c1ccccn1 (centres undefined)
    -8%	-10%

# (list continues)
# Below each compound – Vaccinia mCherry	VACV Venus inh
CCOc1cc(C2C(C#N)=C(N)OC3=C2C(=O)CC(C)(C)C3)cc([N+](=O)[O-])c1O (centres undefined)
    i	-5%
O=C1c2ccccc2-c2cc([N+](=O)[O-])c([N+](=O)[O-])cc21
    ?	?
Cc1ccc(/C=C/C(=O)c2cc(Br)ccc2OC(=O)c2ccco2)cc1
    ?	?
N#CC(c1ccc(O)cc1)N1CCOCC1 (centres undefined)
    -11%	-8%

# Bioassay records deposited in PubChem BioAssay by National Center for Advancing Translational Sciences (NCATS).
